# High-throughput results (PubChem BioAssay)
# RecA intein inh: blocks M. tuberculosis RecA intein splicing | P9WHJ3 | cell-free RecA intein splicing, fluorescence | inhibition, %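 (about 9 µM by stock and volumes)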 | hit rate 0.75% among 290,000 | AID 2221; in the data active = inhibition above about 30%; inconclusive = no clear call, values can overlap the other calls;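 note: 0% = vehicle wells and 100% = reference inhibitor control wells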
# Target sequence (P9WHJ3 whole entry, looked up): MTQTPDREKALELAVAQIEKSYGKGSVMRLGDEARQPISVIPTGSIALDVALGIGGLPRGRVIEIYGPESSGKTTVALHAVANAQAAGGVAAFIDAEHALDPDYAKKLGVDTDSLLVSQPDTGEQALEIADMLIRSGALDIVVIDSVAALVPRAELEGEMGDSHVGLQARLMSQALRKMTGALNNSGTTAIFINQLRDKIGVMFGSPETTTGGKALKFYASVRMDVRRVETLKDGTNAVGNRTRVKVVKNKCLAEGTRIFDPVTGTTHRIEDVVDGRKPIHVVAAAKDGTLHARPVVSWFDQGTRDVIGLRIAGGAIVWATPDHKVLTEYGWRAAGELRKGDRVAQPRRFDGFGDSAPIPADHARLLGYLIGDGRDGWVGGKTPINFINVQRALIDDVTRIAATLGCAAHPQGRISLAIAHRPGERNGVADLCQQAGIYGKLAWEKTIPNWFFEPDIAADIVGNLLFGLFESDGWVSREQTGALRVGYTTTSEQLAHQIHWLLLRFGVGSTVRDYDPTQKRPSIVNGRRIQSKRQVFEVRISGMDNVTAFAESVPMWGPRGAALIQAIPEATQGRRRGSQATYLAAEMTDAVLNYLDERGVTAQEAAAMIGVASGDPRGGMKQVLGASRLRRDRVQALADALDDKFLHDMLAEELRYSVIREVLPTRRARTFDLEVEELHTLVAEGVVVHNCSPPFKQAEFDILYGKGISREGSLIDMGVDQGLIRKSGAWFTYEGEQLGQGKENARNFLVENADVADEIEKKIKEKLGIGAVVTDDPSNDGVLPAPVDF
# Mtb H37Rv: M. tuberculosis H37Rv growth inhibitors, H37Rv strain (AID 1626) | M. tuberculosis H37Rv growth inhibition; higher % means a stronger effect | inhibition, % at 10 µM; hits with a dose series show IC50 in µM | hit rate 0.95% among 220,000;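 active = confirmed in a dose series; inconclusive = inhibition above 80% but not taken into the dose series; inactive = below 80% or under 30% at every dose of the series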;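 note: bacteria incubated seven days before Alamar blue readout; 0% = bacteria only wells and 100% = bacteria with antibiotic wells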
# Arbovirus inh: antivirals against arbovirus infection; arbovirus infection cell-based antiviral screen; inhibition, % at 10 µM; hit rate 0.37% among 200,000; AID 1251;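 active = inhibition from about 30%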;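 note: bluetongue infection of BSR cells; cell survival read as ATP light after 72 h; 0% = infected wells without compound and 100% = uninfected wells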
# YopH inh: blocks Yersinia enterocolitica YopH tyrosine phosphatase. AID 898. fluorescence Ex485/Em525. inhibition, %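 (about 10 µM by stock and volumes)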. hit rate 0.16% among 140,000;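 active = inhibition of 50% or more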;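 note: controls were vehicle for no effect and minimum signal wells for full effect; inactives centre near -20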
# Mtb betalactam: beta-lactam sensitization of Mtb H37Rv; M. tuberculosis H37Rv growth with meropenem, percent inhibition; hits of this screen are not shown here; inhibition, % at 25 µM; hit rate 0.27% among 330,000; AID 434955;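 active = about 74% or more and at least 40 points above the plate without the antibiotic, then above 30% in a dose series; inconclusive = first-round hits that could not be retested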;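 note: growth measured after seven days incubation then overnight dye step; 0% = bacteria only wells and 100% = bacteria with antibiotic; twin plates without the antibiotic show which effects depend on it; some results filed as inactive read as strong as hits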
# Arbovirus inh repeat: second read-out of Arbovirus inh, no call of its own (marks repeat the call); inhibition, %; measured here: 10K subset replicate screen; many hits read low in the repeat;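 first of two repeat runs on a subset; 0% = infected and 100% = uninfected wells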
# * = called active by the depositor; ? = inconclusive; . = no result given. A portion of the library. The share of hits here may be higher or lower than overall.
SMILES,RecA intein inh,Mtb H37Rv,Arbovirus inh,YopH inh,Mtb betalactam,others
CCOC(=O)c1cnc(-n2nc(C)cc2C)nc1NC,4.7,19%,-6,-57,89,
CCN=C1SC(CC(=O)NCCc2ccc(OC)c(OC)c2)C(=O)N1CC (stereo unspecified),0.3,-5%,-1,-6,-8,
Cc1c(CC(=O)N2CCC(C(=O)O)CC2)c(=O)oc2cc3c(cc12)CCC1(CCCCC1)O3,1.0,.,.,.,-9,
CCOCCCNC(=O)C(NC(=O)CNC(C)=O)c1ccc(Cl)cc1 (stereo unspecified),1.2,2%,2,-35,-6,Arbovirus inh repeat=0
Cc1ccsc1CN1CCC(C(=O)NCc2ccccc2Cl)CC1,-0.2,3%,2,-11,0,
CNC(=O)c1c(Cl)cnn1-c1ccccc1,9.6,8%,1,.,-8,
O=C(O)CCCCCNC(=O)CSc1nnc(-c2ccco2)n1-c1ccccc1,1.2,.,.,.,5,
Cc1ccc(S(=O)(=O)Nc2cccc(C(=O)N3CCCC3)c2)cc1F,-3.8,.,.,.,2,
CCN(CC)c1nc(N)c2c(N)nc(OC)cc2c1C#N,-0.7,-7%,.,.,25,
CCOCc1nnc(NC(=O)CSc2ccc(C)cc2)s1,0.0,-8%,6,-32,-4,

# Filtered by structure, the entries above containing an aryl methoxy group (2)
SMILES,RecA intein inh,Mtb H37Rv,Arbovirus inh,YopH inh,Mtb betalactam,others
CCN=C1SC(CC(=O)NCCc2ccc(OC)c(OC)c2)C(=O)N1CC (stereo unspecified),0.3,-5%,-1,-6,-8,
CCN(CC)c1nc(N)c2c(N)nc(OC)cc2c1C#N,-0.7,-7%,.,.,25,

# Continuation:
SMILES,RecA intein inh,Mtb H37Rv,Arbovirus inh,YopH inh,Mtb betalactam,others
Cc1cc(C)n(CC(O)COc2ccccc2C)n1 (stereo unspecified),1.7,2%,2,.,5,
CC(C)NC(=O)COC(=O)c1ccc(O)cc1,-2.3,.,-2,-17,0,
COc1ccc2[nH]c(=O)c(CN(c3ccc(C)c(C)c3)S(C)(=O)=O)cc2c1,-6.5,6%,-8,.,-2,
CCCCCC(=O)Nc1ccc(C(=O)COC(=O)c2ccccn2)cc1,-2.6,.,.,.,-3,
Cc1nc(N)sc1-c1csc(Nc2cccc(C(=O)O)c2)n1,-1.9,.,.,.,8,
Cc1cc(C)nc(NS(=O)(=O)c2ccc(NC(=O)Nc3ccccc3)cc2)n1,3.1,5%,9,.,-5,
COC(=O)CC1=NN(c2ccc(OC)cc2)C(=O)/C1=C\c1ccc(Cl)cc1,21,2%,9,-16,3,
O=C(NCc1cccnc1)Nc1ccccc1F,6.2,-9%,4,-18,0,
CS(=O)(=O)N(Cc1nc2sc3c(c2c(=O)[nH]1)CCCC3)C1CCCCC1,2.5,14%,.,-30,5,
O=C(CSc1nc2ccccc2[nH]1)Nc1ccccc1N1CCOCC1,1.8,-10%,2,-82,-2,
O=C(CN1CCCC1)NC(c1ccccc1)c1ccccc1,-0.9,.,.,.,-7,
CCCC(=O)OCCn1c(Br)nc2c1c(=O)[nH]c(=O)n2C,.,0%,-2,6,8,
O=S1(=O)C=C(Oc2ccc(F)cc2)c2ccccc21,-0.1,-2%,11,14,-7,
COc1cc(C(=O)COC(=O)Cc2cnc3sccn23)cc(OC)c1OC,-2.4,.,-2,-20,2,
Cc1ccc(NS(=O)(=O)c2cc(NC(=O)c3cc(=O)[nH]c(=O)[nH]3)ccc2Cl)c(C)c1,2.5,9%,.,.,-1,
CC(=O)N1CC(C)Sc2ccc(S(=O)(=O)NCc3ccccc3Cl)cc21 (stereo unspecified),1.2,.,.,.,3,
O=C(O)c1ccc(/C=N/N2CCN(C3c4ccccc4-c4ccccc43)CC2)cc1,-4.3,-7%,.,.,-7,
O=c1c2ccccc2nc(-c2ccoc2)n1CCc1ccccc1,7.6,9%,11,-22,-1,
COc1ccc(/C(C)=N/NC(=O)c2cc(-c3cccnc3)nc3ccccc23)cc1,-0.8,5%,-18,-23,2,
O=C(NCc1ccc2c(c1)OCO2)c1cc(Cl)ccc1Cl,-1.5,.,.,.,3,
CCCC1=Nc2cc(C(=O)NCCCN3CCN(C)CC3)ccc2Sc2ccccc21,2.4,.,.,.,6,
COc1ccccc1NS(=O)(=O)c1cc(NC(=O)c2cc3ccccc3oc2=O)ccc1C,0.2,8%,-12,-24,3,
CCN(CC)C(=O)CSc1nc(-c2ccccc2)ccc1C#N,-0.8,4%,-2,.,11,
Cc1ccccc1NC(=O)NCCCN1CCCC1,-1.0,15%,4,-25,2,
O=C(NC(=S)Nc1ccc(NC(=O)c2ccccc2)cc1)c1ccc(F)cc1,-2.3,.,.,.,-5,
Cc1noc(C)c1COC(=O)c1cc2c(C)nn(-c3ccc(F)cc3)c2s1,0.2,-5%,.,.,-4,
Cc1cc(C)n2cnnc2n1,-0.1,-13%,.,.,-5,
COc1cc(Cl)cc(/C=C/c2ccc3ccccc3n2)c1OC(C)=O,2.5,21%,-32,-33,50,
CC(/C=C/c1ccc2c(c1)OCO2)=N\NC(=O)C(O)c1ccccc1 (stereo unspecified),.,-5%,.,.,-10,
C=CCN1CC2CC3(COc4cc(C)cc(C)c4)C=CC2(O3)C1=O (stereo unspecified),3.5,-5%,-3,-36,-7,
S=C(c1nc2ccccc2[nH]1)N1CCOCC1,3.2,-1%,5,-17,68,
CC1(C(=O)OCC(=O)NCCNC(=O)COC(=O)C2(C)CC2(Cl)Cl)CC1(Cl)Cl (stereo unspecified),1.0,.,.,.,-13,
CCOC(=O)c1nc(N)sc1C(=O)OCC,-0.5,9%,2,-17,-6,
COc1ccc(C(=O)Nc2nc3cc4c(cc3s2)OCCO4)c(OC)c1,-1.5,-4%,.,.,-4,
CCc1ccc(CN2CCN(Cc3cc(Br)ccc3O)CC2)cc1,1.7,1%,23,.,11,
COc1ccc([N+](=O)[O-])cc1CSc1ccccn1,0.5,17%,-6,.,-4,
CCOC(=O)c1cc2c(=O)[nH]c(C(Cl)(Cl)Cl)nc2o1,2.0,1%,15,.,3,
COc1ccccc1N1CCN(Cc2cc(OC)c3c(c2)OCO3)CC1,1.0,.,.,.,1,
O=C(Nc1cccc(C(F)(F)F)c1)N(Cc1ccc(Cl)cc1)CC(O)C(F)(F)F (stereo unspecified),6.0,11%,-42,-28,-1,
CSc1nc(O)cc(=O)n1-c1ccc(F)cc1,1.1,2%,-1,.,3,
CC(=O)Nc1cccc(NC(=O)CSc2ncc(C(=O)Nc3ccc(F)cc3)c(=O)n2C)c1,2.8,.,.,.,-1,
CCSc1nnc(NC(=O)c2ccco2)s1,-2.4,-3%,3,-39,4,
Cc1nnsc1Sc1ccccn1,1.4,0%,1,.,9,
Cc1cc(C)c2c(CC(=O)NCCc3ccccc3)coc2c1,9.9,4%,11,.,6,
CS(=O)(=O)N1CCc2cc(-c3csc(NC(=O)Cc4ccccc4)n3)ccc21,8.6,12%,-26,13,76,
O=C(Nc1ccc(OCC(=O)N2CCOCC2)cc1)c1cccc(Cl)c1,0.2,.,.,.,-1,
Brc1cccc(OCCSc2ncccn2)c1,3.1,6%,-6,.,4,
Cc1cc(=O)oc(C)c1C(=O)NCCNC(=O)c1c(C)cc(=O)oc1C,0.7,0%,-2,-37,-4,
O=C(Nc1cccc(-c2nc3ncccc3o2)c1)c1sc2ccccc2c1Cl,2.1,-12%,5,-24,?,
COc1ccc(-c2csc(Nc3ccc(O)cc3)n2)cc1,33*,-1%,-12,.,46,

# Further records
SMILES,RecA intein inh,Mtb H37Rv,Arbovirus inh,YopH inh,Mtb betalactam,others
CSc1nc2c(c(=O)[nH]c(=O)n2C)n1C/C=C(\C)Cl,-0.2,-1%,12,-60,?,
COCC(COS(N)(=O)=O)C(C)C (stereo unspecified),-1.4,.,.,.,-1,
COCCn1c(SCC(=O)N2CCCc3ccccc32)nc2ccccc2c1=O,-2.2,-6%,2,-22,5,
Cc1cc(C)cc(NC(=O)NCC2CCN(Cc3cc(C)ccc3C)CC2)c1,1.7,.,.,.,-1,
COC(=O)CSc1ncnc2c1cnn2-c1ccc(C)cc1C,2.6,?,-5,.,100,
CC1Cc2ccccc2N1C(=O)c1cc2cccnc2n(C)c1=O (stereo unspecified),0.4,.,.,.,-1,
CC1(C)Cc2c(c(N3CCOCC3)nc3sc4c(NCc5ccccc5)nnnc4c23)CS1,1.2,76%,-22,-18,70,
CC1=C(C(=O)Nc2ccccn2)C(c2ccccc2)n2ncnc2N1 (stereo unspecified),2.8,-7%,7,-17,-6,
Cc1cccc(NC(=O)c2ccc3c(c2)C(=O)N(c2ccccc2C)C3=O)n1,1.5,.,.,.,-1,
CCC(=O)Nc1nc2c(c(=O)[nH]1)CCCC2,-1.4,-3%,0,.,-6,
Cc1onc(-c2ccccc2Cl)c1C(=O)OCc1nnc(-c2ccccc2)o1,6.3,.,.,.,-14,
O=C(CSC1CC(=O)N(c2ccc(C(=O)O)cc2)C1=O)Nc1ccc(Cl)cc1 (stereo unspecified),-0.3,-7%,13,.,14,
O=C(CSc1nnc(NC(=O)c2ccccc2F)s1)NCc1ccc(F)cc1,-5.0,.,.,.,?,
Cc1ccc(NC(=S)N(CCCN2CCCC2)Cc2cccn2Cc2ccc(Cl)cc2)cc1,7.9,?,-31,.,95,
COCCC(=O)N1CCC(Oc2ccc(C(=O)N3CCCCC3CCO)cc2)CC1 (stereo unspecified),2.9,.,.,.,?,
COc1cccc(CNC(=O)CCC2CCCN(Cc3cc4ccccc4o3)C2)c1 (stereo unspecified),1.3,8%,-13,.,0,
CC1CCN(S(=O)(=O)c2ccc3nc(-c4ccccn4)cc(C(=O)NCCN(C)Cc4ccccc4)c3c2)CC1,0.6,20%,-5,.,.,
Cc1ccc(OCC(=O)Oc2ccc(C(C)C)cc2)cc1,19,.,.,.,-12,
Cc1cc2c(cc1S(=O)(=O)N(C)C1CCCCC1)OCC(=O)N2,2.2,.,.,.,6,
CC(C(=O)N1CCOCCOCCOCCOCCOCC1)N1C(=O)c2ccccc2C1=O (stereo unspecified),3.9,-6%,3,.,-9,

# Next part, overlapping the part above by 3 compounds.
SMILES,RecA intein inh,Mtb H37Rv,Arbovirus inh,YopH inh,Mtb betalactam,others
Cc1ccc(OCC(=O)Oc2ccc(C(C)C)cc2)cc1,19,.,.,.,-12,
Cc1cc2c(cc1S(=O)(=O)N(C)C1CCCCC1)OCC(=O)N2,2.2,.,.,.,6,
CC(C(=O)N1CCOCCOCCOCCOCCOCC1)N1C(=O)c2ccccc2C1=O (stereo unspecified),3.9,-6%,3,.,-9,
CCC(C(=O)OCC(=O)NC(=O)c1ccccc1)c1ccccc1 (stereo unspecified),2.3,.,.,.,-9,
Cc1ccc(C(=O)COC(=O)c2ccco2)cc1C,-0.7,.,.,.,3,
Cc1cc(C(=O)Nc2c(F)cc(F)cc2Br)n(-c2ccccc2)n1,2.9,.,.,.,9,
C/C(=N\NC(=O)C(O)c1ccccc1)c1ccc(Br)s1 (stereo unspecified),0.9,.,.,.,0,
COc1ccc(CCNC(=O)Cn2c(=O)cnc3ccccc32)cc1,-2.1,1%,-5,-18,-7,
CCOC(=O)c1c(CSc2nc(C)cc(C)c2C#N)n(C)c2cc(Br)c(OC(C)=O)cc12,4.0,10%,-23,-30,10,
CN(C)S(=O)(=O)c1ccc(NC(=O)c2ccc([N+](=O)[O-])cc2)cc1,0.5,7%,.,.,-7,
Fc1ccc(C2CC(c3ccccc3)Nc3ncnn32)cc1 (stereo unspecified),1.3,-1%,-2,-30,?,Arbovirus inh repeat=-3
CCC1(c2ccccc2)NC(=O)N(CC(=O)N(C)CC(=O)Nc2cccc(OC)c2)C1=O (stereo unspecified),-0.2,.,.,.,4,
CCOC(=O)c1c(NC(=O)CN2C(=O)NC3(CCC(C)CC3)C2=O)sc(C)c1-c1ccc(C)cc1 (stereo unspecified),-2.7,16%,-8,-24,?,
CCOc1cccc(=NC2CCCCC2)c2c(C)[nH]c(C)c12,2.9,16%,.,.,62,
CC(=O)OCC#CCSc1nc2ccccc2n1C,2.0,3%,5,-22,3,
Cc1cc(C)cc(C(=O)Nc2nc3ccccc3[nH]2)c1,4.4,.,.,.,98,
COC(=O)c1cn(Cc2cccnc2)c(=O)c2ccccc12,-1.2,2%,-1,.,-6,
CCC(C)Sc1ccc([C@H]2N[C@@](Cc3ccccc3)(C(=O)OC)[C@H]3C(=O)N(C)C(=O)[C@@H]23)cc1 (stereo partly specified),2.8,.,.,.,-10,
Cc1cc(NC(=O)c2ccc([N+](=O)[O-])cc2)n(C)n1,-0.8,-6%,.,.,-8,
CCCCSCCCNC(=O)c1ccc(CS(=O)(=O)c2ccccc2OC)o1,-0.8,.,.,.,3,
Cc1ccc(OCc2cc(C(=O)N(C)CC3CCOCC3)no2)cc1C,0.5,.,.,.,?,
CCOc1ccc(Cc2nn[nH]n2)cc1,3.6,-1%,3,-3,1,
Cc1ccc(Nc2nnc(SCC(=O)Nc3cc(C(=O)O)ccc3C)s2)c(C)c1,1.9,-6%,.,.,6,
